# rRNA inh HTS = inhibits bacterial ribosomal RNA function over humanized ribosomes; E. coli WT GFP vs humanized-ribosome RFP mutants, fluorescence, 24 h; active compounds read low; DMSO median 0, no signal -100; GFP signal change (wild-type ribosome), % (no concentration beside the values); actives 1.6% (n = 350,000); AID 720706;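 active = significant combined selectivity score with lowered wild-type GFP, culture density cut under 30%, mutant RFP and density less affected; inactive = any of these conditions unmet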; also: one replicate is shown; some compounds called inactive have numbers as strong as hits
# T cruzi inh = T. cruzi replication inhibition. T. cruzi beta-gal in NIH3T3, luminescence, 90 h. AID 1885. actives 1.4% (n = 300,000). inhibition, % (no concentration beside the values);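 active = mean inhibition across valid replicates above about 55%, limit read from the data; inconclusive = mean below that limit but half or more replicates reach it; inactive = mean below it, under half of replicates reach it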;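 also: signal also drops with host cell toxicity which is not excluded here; 0% = plate median of DMSO wells and 100% = zero luminescence signal; higher percent means less beta-gal luminescence so fewer parasites; stock transfer was 50 nL into about 50 µL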
# LANA-H2B inh = blocks KSHV LANA binding to histone H2A/H2B; cell-free LANA-H2A/H2B peptide, fluorescence polarization; actives 0.6% (n = 320,000); AID 2629; inhibition, % (no concentration beside the values); Q9QR71; in the data active = inhibition mostly above about 10%, no sharp cut-off; inactive = mostly below about 6.7%;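 also: stock transfer was 7.5 nL into about 10 µL; 0% = median of vehicle wells and 100% = median of positive control wells; one replicate is shown; the record names a cut of 25% in any replicate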
# Bfl-1 A1 inh = inhibitors of the anti-apoptotic protein A1, read as caspase activation. MEF A1-2A-BIM cells, Caspase-Glo 3/7 luminescence, 3 h; percent of clofoctol response, vehicle zero. caspase activation, % (test concentration not listed). AID 2462. actives 0.066% (n = 330,000);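 active = over half of replicate activation scores above 10%, or exactly half above 10 with the replicate mean above 10; inconclusive = replicate mean below 10 yet half the replicates above 10; inactive = over half of replicates below 10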;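 also: wells of about 30 µL received 50 nL stock; many hits fall short of the cut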
# Calb FLC = C. albicans growth modulation with fluconazole; C. albicans CaCi-2 (fluconazole-resistant clinical isolate) + fluconazole, Alamar Blue growth, 48 h; growth inhibition, % (concentration not given with the values); actives 0.57% (n = 300,000); AID 1979;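 active = most replicates above 75%; inconclusive = exactly half above 75%; inactive = most below 75%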;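 also: all wells also contain fluconazole at 8 µg/ml as a sub-toxic cotreatment; 0% = median of DMSO wells and 100% = median of geldanamycin control wells; wells of about 8 µL received 7.5 nL stock; the first replicate is given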
# B2AR ag = agonists of human beta-2 adrenergic receptor inducing internalization; Am2.2-beta2AR cells, FAP receptor internalization, flow cytometry; reference of the scale not given here; P07550; actives 0.43% (n = 340,000); response, % (concentration not given with the values);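 active = response above a set limit, near 3 SD of response in nonfluorescent compounds, cut at about 42% in these data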;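 also: stock transfer was 100 nL into about 11 µL; a reference agonist was the positive control; negative values mostly stem from fluorescent compounds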
# Target sequence (P07550 whole entry, looked up): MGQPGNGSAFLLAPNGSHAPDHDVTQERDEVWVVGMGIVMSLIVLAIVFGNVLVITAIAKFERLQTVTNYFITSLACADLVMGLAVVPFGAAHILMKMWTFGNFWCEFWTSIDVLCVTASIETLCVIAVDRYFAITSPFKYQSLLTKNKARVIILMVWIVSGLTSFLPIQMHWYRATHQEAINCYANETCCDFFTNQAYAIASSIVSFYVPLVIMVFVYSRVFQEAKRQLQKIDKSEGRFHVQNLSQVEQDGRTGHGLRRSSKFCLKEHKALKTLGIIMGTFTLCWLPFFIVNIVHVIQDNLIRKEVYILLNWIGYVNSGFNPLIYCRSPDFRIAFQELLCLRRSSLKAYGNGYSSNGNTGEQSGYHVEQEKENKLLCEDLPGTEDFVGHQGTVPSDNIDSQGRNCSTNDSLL
# ALR H2O2 inh = human ALR oxidase inhibition via reduced H2O2. actives 3.8% (n = 290,000). purified ALR, DTT oxidation, H2O2 HRP-luminol luminescence. inhibition, % (test concentration not listed);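 active = mean and each replicate at 75% or more; inconclusive = only one of the two met; inactive = neither met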;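 also: stock transfer was 7.5 nL into about 7.5 µL; 0% = neutral wells and 100% = wells with inactivated enzyme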
# Target sequence (P55789 whole entry, looked up): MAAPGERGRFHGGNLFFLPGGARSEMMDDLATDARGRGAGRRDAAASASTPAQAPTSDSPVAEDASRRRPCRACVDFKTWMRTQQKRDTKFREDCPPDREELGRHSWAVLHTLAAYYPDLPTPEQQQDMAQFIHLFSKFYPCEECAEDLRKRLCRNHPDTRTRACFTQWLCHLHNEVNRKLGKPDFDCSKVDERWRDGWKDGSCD
# Beta cell apopt = beta cell apoptosis inhibition. protection from apoptosis, % (no concentration beside the values). actives 0.8% (n = 300,000). INS-1E cytokine-induced death, ATP luminescence, 48 h; percent of positive-control rescue, neutral wells zero;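 active = all replicates at 75% or more, or half of them and the mean; inconclusive = half reach 75% but not the mean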;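 also: 0% = cytokine-treated negative control wells and 100% = positive control rescue; higher means more ATP so stronger rescue from cytokine killing; wells of about 40 µL received 100 nL stock; the first replicate is given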
# rRNA inh HTS OD600 = recorded beside rRNA inh HTS, whose call it bears; OD600 change, %; measured here: OD600 growth;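 optical density of the mix in the first replicate; 0 = DMSO median and -100 = no signal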
# rRNA inh HTS RFP = recorded beside rRNA inh HTS, whose call it bears; RFP signal change, %; measured here: RFP humanized mutant strains;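 first replicate; 0 = DMSO median and -100 = no signal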
# * marks the source's active call; other numbers are inactive results; u = inconclusive; x = not tested or not shown. This is a subset. The share of hits here may be higher or lower than overall.
# The line under a structure holds: rRNA inh HTS	rRNA inh HTS OD600	rRNA inh HTS RFP	T cruzi inh	LANA-H2B inh	Bfl-1 A1 inh	Calb FLC	B2AR ag	ALR H2O2 inh	Beta cell apopt
CCc1ccccc1SCc1noc(C(=O)NCC2CCCO2)c1C(=O)O (configuration not stated)
  -4	0	7.9	-1	-1.6	-0.1	-1	3	-9	-13
Cc1c(CCOC(=O)c2cc([N+](=O)[O-])ccc2Cl)sc[n+]1CCCCS(=O)(=O)[O-]
  4	7	-1.5	-19	2.7	0.7	-13	6	-16	-2
Cn1c(=O)oc2cc(S(=O)(=O)NCCCN3CCCC3=O)ccc21
  7	16	-3.2	0	4.5	0.2	1	-11	-30	2
O=C(Nc1nn[nH]n1)C12CC3CC(CC(C3)C1)C2
  x	x	x	-14	3.8	-0.9	-13	6	-9	-4
N#CN=C1SCCS1
  x	x	x	x	-2.7	3.2	x	1	1	x
Cc1ccc(C(=O)C(C)OC(=O)Cn2c(C)csc2=O)cc1 (configuration not stated)
  -9	-2	0.2	-15	-3.2	0.2	-10	-1	-2	x
CC1C=CCC2C(=O)N(c3cccc(C(=O)NCCc4ccccc4)c3)C(=O)C12 (configuration not stated)
  -6	-6	11	5	-1.1	-1.2	-13	9	-9	0
O=C1c2cccc3c([N+](=O)[O-])ccc(c23)C(=O)N1CC1CCCO1 (configuration not stated)
  72	-9	-3.3	6	x	x	-5	7	x	x
CC(C)(C)c1cc(Cl)ccc1OCCOCCN1CCCC1
  -44	-68	-14	47	1.2	1.1	-18	19	-26	4
Cc1oc(-c2ccc3c(c2)OCCO3)cc1C(=O)O
  x	x	x	-4	-1.5	-9.7	9	-1	6	2
CCOc1ccc(Oc2ccc(Cl)cc2NC(=O)C2=COCCO2)cc1
  0	-5	-2.4	27	3.6	-0.5	9	10	7	1
Clc1cc2cccnc2c2ccccc12
  x	x	x	-15	-2.7	-0.1	1	0	-16	-5
CC12CCC(=O)N1c1ccccc1C(=O)N2c1ccccc1 (configuration not stated)
  x	x	x	-7	0.5	0.1	-6	-3	-6	-4
COCCSc1ccccc1C(=O)N1CCc2ccccc2C1
  12	6	0.5	8	-5.4	0.6	-14	6	3	-1
CCCCNC(NCCCC)=C(S(=O)(=O)CC)S(=O)(=O)CC
  x	x	x	-1	2.3	-1.1	-4	3	-2	x
Cc1cc2cc(C=C(C#N)C#N)c(Cl)nc2cc1C
  19	10	2.9	2	7.3	-0.2	1	7	98*	14
CCOc1ccc(CCNC(=O)CSc2nn(-c3ccc(C)c(Cl)c3)c(=S)s2)cc1OCC
  7	10	-1.6	-13	-1.8	0.7	0	3	75	-2
CCOc1ccc(CNC(=O)C2Cc3cc(S(=O)(=O)N4CCCC4)ccc3N2C(C)=O)cc1 (configuration not stated)
  12	12	0.6	7	-1.7	0.2	-15	0	3	2
COc1ccc(/C(C)=N/N=C(N)N)c(OC)c1
  9	11	6.7	-7	-6.1	0.4	3	-7	-1	-2
CC(C)c1nc(N2CCN(C(=O)c3ccco3)CC2)c2c3c(sc2n1)CCCC3
  x	x	x	30	6.2	-0.2	89*	4	-5	25

# The list goes on:
# The line under a structure holds: rRNA inh HTS	rRNA inh HTS OD600	rRNA inh HTS RFP	T cruzi inh	LANA-H2B inh	Bfl-1 A1 inh	Calb FLC	B2AR ag	ALR H2O2 inh	Beta cell apopt
COC(=O)c1cc(NS(=O)(=O)c2ccc3c(c2)c(=O)n(C)c(=O)n3C)cc(C(=O)OC)c1
  5	7	2.5	-8	-1.9	-0.3	13	2	-1	-14
COc1ccccc1N1CCN(C(=O)c2n[nH]c3ccccc23)CC1
  3	-3	1.1	-22	4.0	-0.4	-5	-6	22	-4
c1coc(CN(Cc2ccco2)c2ncnc3c2oc2ccccc23)c1
  x	x	x	42	0.1	-0.4	2	0	-3	x
CCCCCC1NC(=O)NC1CCCCCC(=O)O (configuration not stated)
  x	x	x	-3	-0.2	-1.2	26	-1	9	x
CC(=O)OCC(=O)Nc1ccc([N+](=O)[O-])cc1Cl
  17	3	2.8	-4	1.2	0.5	1	-3	-6	-6
NC(=O)NOCc1ccc(Cl)cc1Cl
  2	4	-0.5	-8	6.4	1.3	-7	13	-6	-7
CS/C(=N\S(=O)(=O)c1ccc(Cl)cc1)c1ccccc1
  7	0	-1.3	-4	-1.3	-0.4	5	3	2	-3
O=C(Nc1ccccc1Cl)c1ccccc1Cc1ccccc1
  x	x	x	8	3.5	0.3	10	17	2	-7
CC(C)CSc1nc2ccccc2c(=O)[nH]1
  x	x	x	8	4.9	-0.2	4	0	-3	-4
O=C(CCc1ccccc1)NC1CCSC1=O (configuration not stated)
  x	x	x	-18	4.6	0.7	5	0	-9	x
COc1cccc(OC)c1OCC(O)CN1CCN(c2ccccc2F)CC1 (configuration not stated)
  5	4	0.2	-1	-5.1	1.0	-18	18	5	-3
Cn1cnnc1SCC(=O)NC1CCCCCC1
  10	11	0.8	-13	0.7	0.4	0	1	-3	-5
Cc1ccc2c(c1)C1CN(C)CCC1N2C(=O)COc1ccc(N(C)C(=O)C(C)(C)C)cc1 (configuration not stated)
  -8	-2	2.1	41	-1.4	0.5	-3	7	-1	0
CC(=O)c1ccc(OCC(=O)NC2CCCCCC2)cc1
  1	-5	-1.7	x	-1.6	0.7	x	-11	-1	0
COc1ccc(CSc2nnc(C)n2N)cc1[N+](=O)[O-]
  1	8	6.3	2	0.7	0.4	4	-3	-4	-2
CCN(CC)S(=O)(=O)c1ccc(Cl)c(OC)c1
  -9	3	4.9	-8	-2.9	0.4	-16	-9	-19	-4
CCCN(C(=O)c1cccc(S(=O)(=O)N2CCN(C)CC2)c1)c1c(N)n(Cc2ccccc2)c(=O)[nH]c1=O
  4	9	-0.5	2	2.4	0.5	0	0	-9	-2
CN(C(=O)COC(=O)c1ccc([N+](=O)[O-])cc1Cl)C1CCCCC1
  -24	-27	3.3	-13	-2.3	0.1	0	-5	-9	-2
CCOc1ccccc1N(CC(=O)Nc1ccccc1C(=O)NCc1ccco1)S(C)(=O)=O
  x	x	x	-4	-5.4	0.5	7	0	-7	-5
Cn1cc(CN2CCCC(C(=O)c3cc(F)ccc3F)C2)c2ccccc21 (configuration not stated)
  -10	-14	-1.1	49	-5.1	-0.3	-5	7	-7	-2

# (further entries)
# The line under a structure holds: rRNA inh HTS	rRNA inh HTS OD600	rRNA inh HTS RFP	T cruzi inh	LANA-H2B inh	Bfl-1 A1 inh	Calb FLC	B2AR ag	ALR H2O2 inh	Beta cell apopt
C=CC(C)N1C(=O)S/C(=C\c2ccc(N3CCOCC3)cc2C)C1=O (configuration not stated)
  -7	1	-0.9	27	5.2	-0.3	0	11	3	4
Cc1cc(NC(=O)CSc2nnc(-c3ccco3)n2Cc2ccco2)no1
  x	x	x	0	5.7	0.2	-9	-7	-2	-10
CC(C)(CO)NC(=O)C12CC3CC(CC(Br)(C3)C1)C2
  x	x	x	4	0.5	0.4	-4	2	-4	x
CCOc1ccc(CCNC(=O)C(O)c2ccccc2)cc1 (configuration not stated)
  x	x	x	-9	2.0	-0.1	5	-3	99*	1
CCOCCCN(C(=O)Cn1nnc(-c2ccc(OC)c(OC)c2)n1)C(CC)C(=O)NC1CCCC1 (configuration not stated)
  -4	-1	1.5	16	-4.1	0.1	-12	13	-24	-2
Cc1ccc(OC(C)C(=O)OCC(=O)Nc2sccc2C(N)=O)cc1 (configuration not stated)
  -6	-1	2.4	x	-3.9	-0.1	x	1	x	-4
CN(C)Cc1c(O)ccc2c(=O)c(-c3ccccc3)c(C(F)(F)F)oc12
  -32*	9.1*	2.5*	-8	4.1	-0.9	0	0	-15	-10
CN(CC(=O)Nc1cccc(F)c1)C(=O)c1ccc(COc2ccccc2)cc1
  -9	-11	2.7	3	0.0	-1.0	-9	5	-8	-2
O=C(CCN1C(=O)C2C3C=CC(C3)C2C1=O)N1CCN(c2ccccc2F)CC1 (configuration not stated)
  x	x	x	8	-2.5	u	-19	6	-1	-5
N#CCc1ccc(NC(=O)CSc2nnc(C3CC3)n2C2CC2)cc1
  9	17	2.7	x	-0.5	0.1	x	8	-5	0
CCOC(=O)c1nnn(-c2nonc2N)c1-c1ccc(C)cc1
  x	x	x	-3	1.5	-0.4	0	-2	0	-4
CC(=O)c1cn(CC(=O)Nc2ccc(C)c(C)c2)c2ccccc12
  10	4	2.1	-3	2.2	0.1	0	3	-6	-1
COc1cc(OC)c(OC)cc1CNC(=O)c1ccc(S(=O)(=O)N2CCCCC2)cc1
  -2	-1	-2.2	x	1.1	-0.7	x	1	x	40
CCOc1ccc(-c2nc(-c3cccs3)c(CC(=O)O)s2)cc1OC
  -19*	-13*	2.6*	22	0.9	-1.2	33	2	89*	-2
CCC(C(=O)Nc1ccc(C)cc1)c1ccccc1 (configuration not stated)
  10	10	-0.7	-2	-6.5	0.9	-9	-4	-7	-6
Cc1cccc(NC(=O)C2CC3CCC2C3)c1C (configuration not stated)
  9	-3	-1.8	-10	-2.0	0.5	-10	1	0	-1
CCN(Cc1cc2cc(OC)ccc2[nH]c1=O)C(=O)Cc1ccc(OC)cc1
  x	x	x	16	1.3	0.5	1	-2	-19	x
CCOC(=O)NC(=O)/C(C#N)=N\Nc1cccc(OC)c1
  7	8	-0.9	-4	5.3	-0.3	-3	3	98*	x
CCOC(=O)C(C#N)C(Cc1ccccc1)c1ccco1 (configuration not stated)
  x	x	x	-2	-0.8	-0.6	3	20	25	-9
O=C1/C(=C\c2ccncc2)CCc2ccccc21
  -12	2	-5.8	-28	5.4	1.2	-12	-2	x	-7

# Following part.
# The line under a structure holds: rRNA inh HTS	rRNA inh HTS OD600	rRNA inh HTS RFP	T cruzi inh	LANA-H2B inh	Bfl-1 A1 inh	Calb FLC	B2AR ag	ALR H2O2 inh	Beta cell apopt
O=C(CSC1=NCCS1)Nc1cccc2ccccc12
  x	x	x	-11	-4.5	-0.9	0	-5	98*	-11
O=C(CC1SC(N2CCCCC2)=NC1=O)Nc1cccc(C(=O)O)c1 (configuration not stated)
  x	x	x	-3	14*	-0.5	-4	10	-15	-1
O=C(C1CCCO1)N1CCN(C(=S)Nc2ccc(F)cc2)CC1 (configuration not stated)
  10	9	-3.8	-24	-2.1	0.6	5	-2	-31	-2
COc1cc(-c2noc(CCC(=O)Nc3cccnc3)n2)cc(OC)c1OC
  x	x	x	-10	-1.5	-1.0	-1	-1	x	x
CC(C)c1ccc(/C=C2\SC(=S)N(CCC(=O)N3CCCCC3CCO)C2=O)cc1 (configuration not stated)
  -5	-9	4.3	-10	3.3	-0.5	-3	1	-2	-29
COC(CNC(=O)c1cc(S(=O)(=O)N2CCc3ccccc32)ccc1F)OC
  10	13	2.2	16	-3.4	0.8	5	6	-7	-4
Cc1ccc(CNC(=O)c2nnn(CC(=O)Nc3cc(C)cc(C)c3)c2N)cc1
  19	16	1.7	21	3.4	0.1	-13	-1	-8	x
CCCOC(=O)c1ccc(NS(=O)(=O)c2cccs2)cc1
  x	x	x	-11	-0.6	-0.9	u	-5	x	-3
CN(C)c1ccc(C(=O)N2CCCC2)cc1
  11	7	1.9	-4	1.2	-0.6	-26	1	98*	0

# Screening data: PubChem, several laboratories
